Screening results as filed in PubChem.
GLA inh pH 4.5 – alpha-galactosidase A (human) inhibition, pH 4.5; P06280; purified enzyme, 4-MU-alpha-Gal fluorescence, pH 4.5; activity change, negative = inhibition, % at 105 µM; 230,000 tested, under 10 active; AID 1467; inconclusive = small, poorly fitted or top-dose-only inhibition, or a rising curve; inactive = flat fitted curve, though single readings scatter; no compound was filed as active;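 note: 0% = full activity with enzyme and -100% = basal without enzyme; dose as in the result columns while the protocol names 77 µM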
miR-21 FLuc – raises the signal of a miR-21 reporter | HeLa miR-21 FLuc reporter, luciferase, 48 h | Potency, µM (series often up to 38.3 µM), without a hit: top-dose reporter change, positive = more light | 340,000 tested, under 10 active; active = well fitted rising curve with a large enough effect; inconclusive = small, poorly fitted or top-dose-only effect; inactive = no such curve, though single readings can be large or run the other way;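 note: % of control where 0% means no effect; miR-21 action dims this reporter so a rising signal means less miR-21 action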
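HeLa miR-21-FLuc reporter line, endogenous miR-21; 2000 cells/well in DMEM/10% FBS; compound titration up to ~40uM final, 48 h, 37 degree Celsius; luciferase detection reagent, 15 min lysis, CCD luminescence.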
Rango release inh – inhibitors of RanGTP-induced Rango-importin beta complex dissociation; Potency, µM (highest dose often 46.1 µM), for inactives: top-dose activity change, negative = inhibition; O95149+P62826; AID 540253; 340,000 tested, 0.071% active; Biochemical FRET Rango-importin beta, RanGTP-induced dissociation; active means falling FRET ratio curve, often poorly fitted, with flat reads before Ran was added; inconclusive means other falling curves, or compound fluorescence or quenching; inactive means flat or rising ratio curve;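 note: potency is the fitted concentration of half-maximal effect; % of control where 0% means no effect; nearly all actives have a fitted effect of over 45% in size; -100% = wells without RanGTP and RCC1; the record marks most hits as doubtful in a second field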
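Recombinant Rango FRET biosensor (EYFP–snurportin 1 IBB–cerulean CFP10) at 0.1 uM premixed with 0.25 uM importin beta in PBS, 1 mM DTT, 0.02% Tween-20, 0.1% BSA. Compound added 5 min; RanGTP-RCC1 (0.6 uM Ran, 2 mM GTP, 0.2 uM RCC1) then triggers release, read at 45 min.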
Rango-impB inh – Rango-importin beta binding inhibition | AID 540263 | 340,000 tested, 0.031% active | Rango CFP/YFP FRET sensor + importin beta, 45 min | Q14974 | Potency, µM (series often up to 92.2 µM), for the others: top-dose inhibition of complex formation; active = rising FRET ratio curve, often small or poorly fitted; inconclusive = mostly compound fluorescence or quenching in the first reads; inactive = flat curves in all reads;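 note: potency is the fitted concentration of half-maximal effect; 0% = DMSO wells and 100% = buffer wells lacking importin beta; nearly all actives have a fitted effect of over 15% in size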
Target sequence (Q14974 whole entry, looked up): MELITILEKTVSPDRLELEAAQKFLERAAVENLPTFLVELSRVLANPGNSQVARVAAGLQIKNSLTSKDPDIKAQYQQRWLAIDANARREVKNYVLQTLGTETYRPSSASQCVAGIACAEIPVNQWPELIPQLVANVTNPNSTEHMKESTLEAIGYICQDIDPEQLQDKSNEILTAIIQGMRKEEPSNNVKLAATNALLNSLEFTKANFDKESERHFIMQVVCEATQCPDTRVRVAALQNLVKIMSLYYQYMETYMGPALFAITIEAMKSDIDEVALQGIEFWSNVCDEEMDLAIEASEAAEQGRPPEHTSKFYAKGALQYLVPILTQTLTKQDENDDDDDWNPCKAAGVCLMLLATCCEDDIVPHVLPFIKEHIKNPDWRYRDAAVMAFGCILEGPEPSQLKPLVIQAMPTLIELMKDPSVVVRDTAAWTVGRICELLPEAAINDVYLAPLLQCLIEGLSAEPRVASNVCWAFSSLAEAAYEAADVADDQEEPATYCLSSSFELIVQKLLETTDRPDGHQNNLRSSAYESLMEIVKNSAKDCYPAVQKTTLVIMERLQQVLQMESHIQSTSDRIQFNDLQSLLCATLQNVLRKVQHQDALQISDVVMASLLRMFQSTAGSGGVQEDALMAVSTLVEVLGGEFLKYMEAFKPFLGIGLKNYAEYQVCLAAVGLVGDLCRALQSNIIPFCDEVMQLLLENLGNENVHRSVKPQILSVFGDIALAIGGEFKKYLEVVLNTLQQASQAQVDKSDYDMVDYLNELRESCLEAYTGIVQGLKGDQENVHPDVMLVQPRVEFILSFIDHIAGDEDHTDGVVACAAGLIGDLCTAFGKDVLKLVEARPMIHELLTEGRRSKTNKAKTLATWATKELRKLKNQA
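FRET biosensor Rango (snurportin 1 IBB between N-terminal EYFP and C-terminal Cerulean), 50 nM in PBS/1 mM DTT/0.02% Tween-20/0.1% BSA, preincubated 5 min RT with compound; 0.125 microM importin beta added, 45 min RT, CFP/YFP FRET ratio read.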
* marks the source's active call; other numbers are inactive results; ? = inconclusive; . = no result given; & = joins results of further samples. Some of the compounds tested; the hit share may differ from the screen's.

GLA inh pH 4.5	miR-21 FLuc	Rango release inh	Rango-impB inh	canonical_smiles
-9	-13%	22%	-1.1%	CCOc1ccc2nc(NS(=O)(=O)c3ccc4c(c3)n(C)c(=O)n4C)sc2c1
.	.	7%	-3.3%	O=C(C[C@@H]1C/C=C\C[C@H](NC(=O)OCC2c3ccccc3-c3ccccc32)C(=O)OC[C@@H]2CCCN2C1=O)NCCO
12	1%	3%	0.1%	CCOC(=O)c1cc2c3ccccc3n(CC)c2nc1N
-2	-21%	-4%	-0.4%	COc1ccc(N=Nc2cnc(C)nc2-c2ccccc2)cc1
.	-3%	2%	2.4%	CCc1cccc(NC(=O)CCCN2C(=O)C(c3ccccc3)Oc3cccnc32)c1 (stereo not given)
.	3%	0%	-2.9%	CCOc1ccc(-c2c(C(=O)N/N=C/c3cccs3)nnn2-c2nonc2N)cc1
-1	0%	0%	-4.9%	Cc1cc(C)c2c(CC(=O)O)coc2c1
-2	-3%	2%	-3.6%	N#C/C(=C/Nc1ccccc1C(=O)O)C(N)=O
-11	-9%	1%	-4.6%	COC(CNC(=O)c1ccc2c(c1)nc(C)n2-c1ccc(F)c(F)c1)OC
.	-2%	2%	-1.0%	COCC1CCN(C(=O)C2CCC(=O)N(CC3CCCCC3)C2)CC1 (stereo not given)
.	6%&-1%	?	1.9%	CCC1CN(C(=O)N2CCC(C(=O)Nc3ccccc3F)CC2)c2ccccc2O1 (stereo not given)
-1	-7%	?	-1.4%	N#Cc1nc(COc2ccc(Cl)cc2Cl)oc1N1CCN(c2ccccc2)CC1
.	.	-6%	-3.5%	O=C(O)c1cccc2c1Oc1ccccc1S2(=O)=O
7	-1%	5%	0.1%	O=C(CCCn1c(SCc2cc(=O)n3cc(Cl)ccc3n2)nc2ccccc2c1=O)NCC1CCCO1 (stereo not given)
.	-17%	6%	0.0%	CC(C)(C)SCCNC(=O)c1ccc(CN2CCc3ccccc3C2)cc1

Next section, overlapping the part above by three compounds.
GLA inh pH 4.5	miR-21 FLuc	Rango release inh	Rango-impB inh	canonical_smiles
.	.	-6%	-3.5%	O=C(O)c1cccc2c1Oc1ccccc1S2(=O)=O
7	-1%	5%	0.1%	O=C(CCCn1c(SCc2cc(=O)n3cc(Cl)ccc3n2)nc2ccccc2c1=O)NCC1CCCO1 (stereo not given)
.	-17%	6%	0.0%	CC(C)(C)SCCNC(=O)c1ccc(CN2CCc3ccccc3C2)cc1
.	-9%	-5%	-0.4%	CC[C@@]12C(=O)N(c3ccc(C)cc3)C(=O)N1[C@H](c1ccc(OC)cc1)[C@@H]1C(=O)N(C(C)(C)C)C(=O)[C@@H]12
.	2%	15%	-4.0%	Cn1nc(C(=O)Nc2ccc(Br)cc2)cc1C(=O)Nc1ccc(Br)cc1
-9	3%	1%	1.0%	COc1cc(Cl)c(C)cc1NC(C)C(=O)Nc1cc(C(F)(F)F)ccc1N1CCOCC1 (stereo not given)
4	-5%	-5%	2.1%	CCC(=O)Nc1cc(=O)[nH]c2ncnn12
2	4%	4%	-2.5%	CN(CCc1ccccn1)C(=O)c1cccnc1Oc1ccc(Cl)cc1
-7	1%	11%	-2.7%	COc1ccc(-c2nnn(CC(=O)N(Cc3ccccc3Cl)C(C(=O)NCC3CCCO3)c3ccco3)n2)cc1 (stereo not given)
.	29%	-9%	-3.0%	COc1cc(-c2cc(C(=O)NCc3ccco3)c3ccccc3n2)cc(OC)c1OC
.	.	1%	-1.8%	COc1ccc(OC)c(NC(=O)c2cc(S(=O)(=O)N(C)C)ccc2N2CCCC2)c1
.	3%	-10%	0.6%	CCN1CCN(C/C(C)=C/c2ccccc2)CC1
.	0%	-2%	-0.8%	CCOc1ccc(CCN2C(=O)c3ccc(C(=O)O)cc3C2=O)cc1OCC
-4	24%	11%	-2.0%	CCOC(=O)c1ccccc1NS(=O)(=O)c1ccc(OCC)cc1
-8	1%	9%	-1.1%	O=C(NC1CCCc2ccccc21)C1CCCN(S(=O)(=O)c2cnc[nH]2)C1 (stereo not given)
-5	-8%	?	?	CSc1ccc(/C=c2\s/c(=C\C(=O)C(C)(C)C)n(CC(=O)NCCC3=CCCCC3)c2=O)cc1
.	17%	15%	-3.7%	O=C(c1ccc(C(F)(F)F)cc1)C1CCCN(C(=O)CCc2ccncc2)C1 (stereo not given)
1	-3%	-1%	9.3%	O=C(CSc1nnc2c(Cl)cc(Cl)cn12)N1CCN(c2ccc(F)cc2)CC1
3	-2%	1%	1.1%	C=CCn1c(O)c(N=NC(=O)c2ccccc2NS(=O)(=O)c2cccs2)c2ccccc21
.	.	-9%	4.5%	CCN(C(=O)CSc1nnc(SC(C)C)s1)C1CCS(=O)(=O)C1 (stereo not given)
-2	-4%	-7%	0.1%	CN(CC(=O)NCCN1CCN(c2ccccc2)CC1)S(=O)(=O)c1ccc2c(c1)CCC(=O)N2
.	.	-16%	0.0%	COc1cc(C(=O)NCC(=O)NC(C)c2ccc(-n3ccnc3)cc2)cc(OC)c1OC (stereo not given)
.	.	14%	-2.8%	Cc1cccc(OC(C)C(=O)Nc2ccc(N3CCCCC3)cc2)c1 (stereo not given)
.	-4%	-12%	5.2%	O=C(CC1CCCCC1)N=C1SC2CS(=O)(=O)CC2N1c1ccccc1 (stereo not given)
-30	-6%	2%	0.0%	COc1ccc(N(C(=O)c2cc3ccccc3oc2=O)C2C=CS(=O)(=O)C2)cc1 (stereo not given)
-6	-3%	-17%	-0.8%	N#Cc1ccc(NC(=O)COC(=O)CNC(=O)C2CCCCC2)cc1
.	.	11%	-0.5%	O=c1[nH]cnc2c1sc1nc(C(F)F)cc(-c3ccccc3)c12
3	-16%	-19%	-6.9%	C=C(C)COc1ccc(-c2nc(N)nc(C)c2Oc2ccccc2OC)c(O)c1
.	-14%	12%	-5.2%	CCOC(=O)c1ccc(CN2C(=O)c3ccccc3S2(=O)=O)cc1
-2	-3%	-15%	?	CS(=O)(=O)n1nc(-c2ccco2)nc1N
.	-11%	?	-5.4%	COc1ccc(OC)c(C2=NOC(C(=O)Nc3ccc4c(c3)OCCO4)C2)c1 (stereo not given)
5	-9%	8%	0.7%	O=c1cc(N2CCCCCC2)[nH]c(=O)n1-c1ccc(Cl)cc1
.	.	10%	2.9%	CCC(=NN=C(CC)c1ccccc1O)c1ccccc1O
1	-1%	-29%	?	CN(C)/C=C1/Nc2ccccc2C1=O
12	-1%	0%	-2.2%	S=c1[nH]cc(-c2ccccc2)[nH]1
-11	7%	?	?	CCOC(=O)c1cc(C(=O)c2cccs2)n2ccc(C(C)=O)cc12
-6	-9%	-1%	-0.5%	O=C(Cn1nc(-c2ccc(Cl)cc2)ccc1=O)NCCN1CCOCC1
6	-2%	?	4.9%	CSc1ccc(C(C(C(=O)c2cccs2)N2CCOCC2)N2CCOCC2)cc1 (stereo not given)
.	-1%	50%	5.2%	Cc1c(-c2csc(N)n2)c2ccccc2n1C
6	-2%	-4%	-0.4%	CC(C)N(C)C(=O)C(=O)c1cccn1-c1cccc(Cl)c1C#N
-8	-3%	1%	-2.8%	O=C(NCc1ccco1)C1CC(=O)N(CCc2ccccc2)C1 (stereo not given)
-4	-2%	-4%	-1.3%	C=CCn1c(CCNC(=O)c2cccs2)nnc1SCC(=O)c1ccc(Br)cc1
.	.	7%	1.0%	COc1ccc(C)cc1S(=O)(=O)NCC(c1ccc2c(c1)OCO2)N1CCN(C)CC1 (stereo not given)
-5	-8%	1%	0.6%	COc1ccc(Nc2ccc(Nc3ccc(OC)cc3)nn2)cc1
.	5%	-5%	2.2%	O=C(COc1cccc([N+](=O)[O-])c1)NN1C(=O)c2ccccc2C1=O
-24	?	10%	3.7%	CCN1C=CC(=C2C(=O)c3ccccc3C2=O)C=C1
0	0%	7%	5.0%	O=C(O)CCC(=O)CCC(=O)c1ccccc1
6	-51%	17%	-3.8%	c1ccc(-c2nc(-c3ccncc3)no2)cc1

Compound profiles, as listed above. Order of values: GLA inh pH 4.5 | miR-21 FLuc | Rango release inh | Rango-impB inh
Record of `CSc1ccc(C(C(C(=O)c2cccs2)N2CCOCC2)N2CCOCC2)cc1` (stereo not given) : 6 | -2% | ? | 4.9%
Record of `CC(C)N(C)C(=O)C(=O)c1cccn1-c1cccc(Cl)c1C#N` : 6 | -2% | -4% | -0.4%
Record of `O=C(Cn1nc(-c2ccc(Cl)cc2)ccc1=O)NCCN1CCOCC1` : -6 | -9% | -1% | -0.5%
Record of `CCOC(=O)c1cc(C(=O)c2cccs2)n2ccc(C(C)=O)cc12` : -11 | 7% | ? | ?
Record of `O=C(COc1cccc([N+](=O)[O-])c1)NN1C(=O)c2ccccc2C1=O` : . | 5% | -5% | 2.2%

Later entries.
GLA inh pH 4.5	miR-21 FLuc	Rango release inh	Rango-impB inh	canonical_smiles
-3	-68%	1%	6.0%	Cc1cc(C(=O)N/N=C/c2ccccc2)c(C)o1
.	.	-1%	4.7%	COc1ccc(NC(=O)COC(=O)CCc2ccc(S(=O)(=O)N3CCOCC3)cc2)cc1OC
.	.	4%	-0.5%	O=C(NCCOc1ccccc1)C1Nc2ccc(OC(F)(F)F)cc2C2C=CCC12 (stereo not given)
1	-21%	-5%	-3.0%	Cn1nccc1NC(=O)Nc1ccc(OC(F)(F)F)cc1
-1	-8%	-1%	-0.4%	Cc1ccc(-c2nnn(CC(=O)N(CC3CCCO3)C(C(=O)NC(C)(C)C)c3ccc(F)cc3)n2)o1 (stereo not given)
.	.	-8%	0.6%	Cc1ccc(S(=O)(=O)N2[C@@H](c3ccc(F)cc3)C(C(=O)O)=CC[C@H]2c2cccc(Cl)c2)cc1
.	.	-2%	-2.1%	COCCn1ccc2c(OCC(=O)NCCc3ccc(OC)c(OC)c3)cccc2c1=O
6	-6%	-4%	-0.5%	COc1ccc2c(-c3ccccc3)cc(SCC(N)=O)nc2c1
-6	-2%	2%	0.5%	CCOc1ccc(N2CC(C(=O)Nc3ccc(S(=O)(=O)Nc4ncccn4)cc3)CC2=O)cc1 (stereo not given)
6	-2%	1%	0.0%	CN(C(=O)CSc1nnc(-c2ccccc2)n1C)C1CCS(=O)(=O)C1 (stereo not given)
-4	0%	0%	-1.2%	Cc1cccc(C)c1-n1c(=O)n(Cc2ccccc2)c(=O)c2[nH]cnc21
-13	-2%	.	.	Cn1c2ccccc2c2nnc(SCc3nnc(-c4ccccc4)o3)nc21
.	.	-6%	0.1%	NC(=O)C(NC(=O)OCc1ccccc1)c1ccccc1 (stereo not given)
2	6%	1%	1.5%	Cc1ccc(S(=O)(=O)N2CCN(S(=O)(=O)c3ccccc3)C2c2ccc(N(C)C)cc2)cc1 (stereo not given)
0	-1%	-10%	-0.8%	O=C(NCc1ccc(N2CCCC2=O)cc1)Nc1cccc2ccccc12
1	-6%	5%	-0.8%	Cc1cc(Cl)ccc1NC(=S)NCCCN1CCCC1=O
-1	-1%	5%	-4.5%	COC(=O)Cn1cccc1C(=O)c1ccccc1
.	-14%	3%	1.9%	CCOC(=O)c1cccc(NC(=O)c2cc3ccccc3o2)c1
1	-10%	?	?	CCOC(=O)CSc1nc(N2CCOCC2)c2c(c1C#N)CC(C)(C)N(C)C2
.	-66%	23%	0.9%	O=C(NNC(=S)Nc1ccccc1Cl)c1ccccc1Br
